# High-throughput results (PubChem)
# Cruzain Triton – inhibitors of Trypanosoma cruzi cruzain with detergent; AID 1478; purified cruzain, Z-FR-AMC fluorescence, 0.01% Triton; Potency, µM, for inactives: max response, negative = inhibition, hits mostly inhibitors; hit rate 0.43% among 200,000;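 further: plate controls were neutral wells for no effect and buffer without enzyme for full effect; nearly all actives have a fitted effect of over 40% in size; top concentration of the series not given in the record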
# Target sequence (P25779 123-467 limits assumed): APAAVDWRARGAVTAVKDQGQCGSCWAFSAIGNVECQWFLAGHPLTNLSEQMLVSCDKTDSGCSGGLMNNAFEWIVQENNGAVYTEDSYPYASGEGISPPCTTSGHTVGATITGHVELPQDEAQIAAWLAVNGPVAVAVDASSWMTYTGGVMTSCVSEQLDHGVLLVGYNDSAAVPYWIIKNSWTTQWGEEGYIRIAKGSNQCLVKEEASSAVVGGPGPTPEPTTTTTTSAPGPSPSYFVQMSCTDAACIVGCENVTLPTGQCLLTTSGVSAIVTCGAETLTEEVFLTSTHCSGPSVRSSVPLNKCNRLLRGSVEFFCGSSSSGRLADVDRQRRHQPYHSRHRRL
#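 Detergent-containing arm of a paired screen for aggregation-based inhibition: 0.01% Triton X-100 present. Cruzain at 1.5 nM cleaved 2 uM Z-FR-AMC at pH 5.5 with 5 mM DTT; AMC fluorescence gain over 60 s measured activity.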
# 2A StopGo – FMDV 2A StopGo reporter, luciferase signal; human cells with a luciferase reporter of 2A StopGo recoding; control for the full effect not named in the record; Potency, µM (doses to about 57.9 µM), without a hit: at the highest dose signal change, negative = less light; hit rate 1.2% among 410,000; active = well fitted falling curve with a large enough effect; inconclusive = small, poorly fitted or top-dose-only effect; inactive = no such curve, though single readings can be large or run the other way; tested in HEK293T cells; further: on the % scale 0 is the no-effect control and ±100 the full control effect; nearly all actives have a fitted effect of over 45% in size; luciferase light after 4 h
# Marburg entry inh – Marburg virus entry inhibition; hit rate 1.8% among 300,000; Marburg virus pseudotyped entry inhibition, cell reporter; control for the full effect not named in the record; about a third of the inactives were read at about 46 µM; Potency, µM (titrated, usually from 37.8 µM), for inactives: top-dose activity change, negative = inhibition, usual class: inhibitors; active = well fitted inhibition curve with a large enough effect; inconclusive = small, poorly fitted or top-dose-only effect, or effect the other way; inactive = flat fitted curve, though single readings scatter; tested in HEK293 cells; about a fifth of its hits are not listed in these tables; further: on the % scale 0 is the no-effect control and ±100 the full control effect; luciferase read-out
# NS1 function inh – inhibitors of influenza NS1 protein function | AID 2326 | S. cerevisiae slowed by influenza A NS1, growth recovery by OD600 | hit rate 0.4% among 270,000 | Potency, µM (series often up to 46.1 µM), for the others: at the highest dose activity, positive = more growth; active means well fitted rising curve with a large enough effect; inconclusive means small, poorly fitted or top-dose-only effect; inactive means no such curve, though single readings can be large or run the other way; further: nearly all actives have a fitted effect of over 50% in size
#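 Recovery from NS1-induced slow growth read by OD600 in budding yeast switched to galactose assay medium (pH 6.0, -URA) at 1:100 dilution. Compound 23 nl per well; the matching strain lacking NS1 serves as control.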
# RE007 growth inh – less growth of the S. pombe RE007 Vpr strain. Potency, µM (titrated, usually from 92.2 µM), inactives show top-dose activity change, negative = less growth. AID 651644. hit rate 0.21% among 360,000. S. pombe RE007 Vpr strain, BacTiter-Glo ATP luminescence, 24 h; control for the full effect not named in the record; active = well fitted falling curve with a large enough effect; inconclusive = small, poorly fitted or top-dose-only effect; inactive = no such curve, though single readings can be large or run the other way;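 further: on the % scale 0 is the no-effect control and ±100 the full control effect; nearly all actives have a fitted effect of over 50% in size; the assay follows cell death caused by Vpr and the record does not say whether a fall means rescue or toxicity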
#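 Fission yeast strain RE007, carrying one chromosomally integrated HIV-1 vpr copy, was seeded at OD 0.01 in PMG+AL medium with 23 nL pinned compound. After 24 h at 30 °C and 99% humidity, viability was read by BacTiter-Glo luminescence.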
# LASV entry inh – inhibitors of Lassa virus binding or cell entry; Lassa virus pseudotype entry inhibition, cell reporter; control for the full effect not named in the record; Potency, µM (top dose mostly 37.9 µM), for inactives: top-dose activity change, negative = inhibition, usual class: inhibitors; hit rate 1.2% among 300,000; active means well fitted inhibition curve with a large enough effect; inconclusive means small, poorly fitted or top-dose-only effect, or effect the other way; inactive means flat fitted curve, though single readings scatter; tested in HEK293 cells; further: on the % scale 0 is the no-effect control and ±100 the full control effect; nearly all actives have a fitted effect of over 50% in size; luciferase read-out
# Cruzain inh noDet – inhibitors of Trypanosoma cruzi cruzain without detergent; AID 1476; hit rate 2.3% among 200,000; Potency, µM, inactives show max response, negative = inhibition, most hits filed as inhibitors; purified cruzain, Z-FR-AMC fluorescence, no detergent;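 further: plate controls were enzyme without inhibitor for no effect and buffer without enzyme for full effect; nearly all actives have a fitted effect of over 40% in size; top concentration of the series not given in the record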
#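 Detergent-free condition (0.00005% Triton X-100) in acetate buffer pH 5.5 with DTT. 1.5 nM enzyme and compound were pre-mixed 15 min, then 2 uM Z-FR-AMC substrate added; reaction progress from fluorescence change between first and third reads (60 s).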
# SARS PLP yeast – inhibitors of SARS-CoV papain-like protease in yeast. S. cerevisiae expressing SARS-CoV PLpro, growth rescue; control for the full effect not named in the record. Potency, µM (titrated, usually from 32.9 µM), for the others: at the top dose activity, positive = growth rescue. hit rate 0.19% among 330,000. AID 485353; active means well fitted rising curve with a large enough effect; inconclusive means small, poorly fitted or top-dose-only effect; inactive means no such curve, though single readings can be large or run the other way; further: 0% is about no effect; nearly all actives have a fitted effect of over 55% in size; growth read by luminescence after 48 h
# Starred values were filed as active, the others as inactive; ? = inconclusive; . = no result given; & = joins results of further samples; [ ] = another dose, or the depositor's remark. Unless noted, the call rests on the fitted dose curve; in most records, active means well fitted curve in the direction sought with a large enough effect; inconclusive means small, poorly fitted or top-dose-only effect, or another doubt; inactive means no such curve, though single readings can be large; an effect the other way counts as inactive or inconclusive. Potency means the concentration at half of the fitted maximal effect.
no.	Molecule	LASV entry inh	RE007 growth inh	NS1 function inh	Marburg entry inh	2A StopGo	SARS PLP yeast	Cruzain Triton	Cruzain inh noDet
1	c1coc(C2=NC(c3ccco3)C(c3ccco3)N2)c1 (centres undefined)	18%[46.1 µM]	-8%	.	3%[46.1 µM]	12%	.	.	.
2	CCCS(=O)(=O)N1CCCC(C(=O)NCCCN(C)Cc2ccccc2)C1 (centres undefined)	5%	-5%	4%	-8%	-4%	-5%	10.0%	-1%
3	O=C(O)c1ccc2c(c1)CCC2	12%	?	.	14%[46.1 µM]	-11%	4%	.	.
4	CC1C(c2ccccc2)OC(=O)N1C (centres undefined)	-7%[46.1 µM]	3%	.	-17%[46.1 µM]	-13%	.	.	.
5	O=C(CCc1nc2ccccc2[nH]c1=O)OCC(=O)N1CCc2ccccc21	3%	45%	0%	1%	-16%	-7%	-2.9%	-12%
6	Cc1ccn2cc(C(=O)N3CCCC(Nc4ccc(F)cc4)C3)nc2c1 (centres undefined)	-9%	-27%	0%	9%	-1%	?	.	.
7	Cc1ccc(NC(=O)CSC(C)C(=O)OCC(=O)N2CCN(C(=O)c3ccco3)CC2)cc1 (centres undefined)	10%	2%	.	25%	11%	8%	.	.
8	O=C(O)CCC(NC(=O)OCc1ccccc1)C(=O)O (centres undefined)	0%	13%	-5%	?	-1%	0%	-6.0%	0%
9	CC1(C)CC2CC(C)(CN2C(=O)c2ccccc2)C1 (centres undefined)	-13%[46.1 µM]	31%	-3%	?	-4%	1%	.	.
10	O=C(Nc1nnc(-c2cccnc2)o1)c1ccccc1Cl	?	13%	.	-20%	-6%	-5%	.	.
11	CC(=O)Nc1ccc(S(=O)(=O)NCC2CCC(C(=O)NCc3ccccc3Cl)CC2)cc1 (centres undefined)	-12%[46.1 µM]	.	.	.	28%	.	-0.8%	-28%
12	O=C(C1CCCN(S(=O)(=O)c2cccc3nonc23)C1)N1CCN(c2ccccc2Cl)CC1 (centres undefined)	?	-9%	?	?	?	-37%	-2.9%&-2.9%	7%&-13%
13	Cc1csc(NC(=O)CN2C(=O)C3CC=CCC3C2=O)n1 (centres undefined)	18%	8%	5%	17%	-2%	1%	1.6%	-2%
14	CN(C)CCOC1c2ccccc2CSc2ccccc21 (centres undefined)	19%[46.1 µM]	3%	.	?	-14%	.	.	.
15	COc1cc(OC)c(-n2cc(-c3ccc(OC)c(OC)c3)[nH]c2=S)cc1Cl	.	7%	6%	.	-16%	1%	.	.
16	OC1C2(Cc3ccccc3)CN3CCN(C2)CC1(Cc1ccccc1)C3 (centres undefined)	?	-13%	-3%	-20%	2%	-1%	2.1%	-5%
17	Cc1noc(C)c1COc1ccccc1C(=O)NNC(=O)c1ccccc1	-5%	16%	.	0%	17%	3%	.	.
18	CCC(=O)Nc1cccc(NC(=O)c2cccc([N+](=O)[O-])c2C)c1	19%	2%	-12%	-4%	-21%	-1%	6.0%	-3%
19	O=C(COC(=O)C1COc2ccccc2O1)Nc1cccc(S(=O)(=O)N2CCCCC2)c1 (centres undefined)	.	-1%	.	1%[46.1 µM]	-10%	-5%	.	.
20	CCc1cccc(NC(=O)CN(C)S(=O)(=O)c2cccs2)c1	17%	12%	.	9%	1%	-5%	.	.
21	COc1ccc(-c2nnc(SCC(=O)c3ccc[nH]3)o2)cc1	?	3%	0%	-26%	28%	?	4.0%	-23%
22	CCCN1C(=O)CN(C2CCCCC2)C(=O)C1c1ccc(OC)c(OC)c1 (centres undefined)	2%[46.1 µM]	.	.	.	-14%	.	1.6%	4%
23	COC(=O)Cn1c2[n+](c3ccccc31)CC(O)CS2 (centres undefined)	?	5%	-8%	14%	4%	21%	-2.2%	7%
24	CCN(CC)CCCNC(=O)C1CCCN(c2nnc(N3CCCC3=O)s2)C1 (centres undefined)	9%	6%	5%	-7%	13%	2%	-1.2%	10%
25	COc1ccc(CCNC(=O)c2cc(C)nc3c2c(C)nn3-c2ccccc2)cc1OC	18%[46.1 µM]	.	.	.	-2%	.	-5.8%	18%
26	O=[N+]([O-])c1ccc(O)c(C(C#Cc2ccccc2)N2CCOCC2)c1 (centres undefined)	?	-10%	20%	?	1%	-8%	.	.
27	Cc1oc2ccc(OCc3cccc(Cl)c3)cc2c1C(=O)O	.	0%	-1%	.	-14%	-2%	.	.
28	O=c1[nH]c2cc3c(cc2cc1CN(Cc1nnnn1C1CCCC1)C1CCCC1)OCCO3	-14%	10%	4%	?	36%[activator]	2%	-1.5%	-9%
29	COc1ccccc1NC(=O)CN1CCCCCC1	-15%	-2%	-9%	-5%[46.1 µM]	4%	-14%	.	.
30	COC(=O)Cn1c(=NC(=O)c2cccc(OC)c2)sc2cc(OC)ccc21	-1%	2%	14%	?	28%	-7%	-8.7%	-7%
31	COc1ccc(C)cc1NC(=O)CN1CCN(CC(=O)Nc2ccccc2F)CC1	-2%	1%	8%	?	?	3%	-0.4%&-1.3%	11%&-6%
32	COc1ccc(C[C@H]2CN3C(=NC[C@@H]3Cc3ccccc3)N2CCNC(=O)CCC2CCCCC2)cc1	.	1%	4%	.	0%	0%	.	.
33	N#Cc1nc(-c2cccs2)oc1NCc1ccc2c(c1)OCO2	0%	4%	-80%	8%&8%	-13%	-9%	-6.6%	7%
34	CC1=C(C(=O)Nc2cccnc2)C(c2ccccn2)n2nnnc2N1 (centres undefined)	20%	-9%[3.69 µM]	9%	-12%	-15%	5%	0.3%	-4%
35	CCOc1ccc(S(=O)(=O)N(C)c2ccc(OCC(=O)Nc3ccccc3F)cc2)cc1	?	10%	.	-26%	?	-3%	.	.
36	COc1ccc(-c2csc(Nc3ncccn3)n2)cc1C	.	-12%	4%	.	38%[activator]	0%	.	.
37	COc1ccccc1N1CCN(CC(=O)NCCc2ccc(S(N)(=O)=O)cc2)CC1	10%	-19%	2%	0%[46.1 µM]	3%	0%	.	.
38	Cc1ccc(NC(=O)Cn2nnc(C(=O)NCc3cccs3)c2N)c(C)c1	.	18%	1%	.	-17%	1%	.	.
39	CC(NCC#Cc1ccccc1)C(O)c1ccccc1 (centres undefined)	3%	-2%	.	-3%	-9%	-2%	.	.
40	Cc1ccc(C)c(Cn2nnc3c(=O)[nH]c(C4CCN(S(=O)(=O)c5ccc(S(=O)(=O)NC6CC6)cc5)CC4)nc32)c1	?	-1%	20%	?	2%	2%	.	.
41	Cc1cccc(-c2nc3scc(CCNC(=O)c4ccc(Br)o4)n3n2)c1	-5%[46.1 µM]	.	.	.	-9%	.	-3.7%	21%
42	CCOC(=O)C1(CCOc2ccccc2)CCN(Cc2ccncc2)CC1	-9%	-10%	-1%	?	?	0%	.	.
43	Cc1occc1-c1nnc(SCC(=O)N(C)C)o1	?	-11%	-7%	20%	61%[activator]	21%	9.4%	-9%
44	N#Cc1nc(Cc2cccc3ccccc23)oc1NCc1ccc(F)cc1	-17%	2%	-49%	?	-7%	-13%	1.8%	-15%
45	CCN(CC)CC(=O)Nc1sc2c(c1C(=O)c1ccccc1OC)CCC2	11µM*	-17%	-7%	?	0%	0%	.	.
46	COc1ccc(Cc2nnc(NC(=O)c3ccc(F)cc3)s2)cc1OC	.	5%	6%	.	-9%	5%	.	.
47	Cc1cccc(Sc2ccc([N+](=O)[O-])cn2)c1	14%	-6%	-8%	-25%	-7%	-3%	-2.9%	-7%
48	CCn1c(=O)c(C(=O)NNS(=O)(=O)c2ccc(NC(=O)OC)cc2)c(O)c2ccccc21	.	-9%	4%	?	11%	-1%	.	.
49	CC(C)N1CCN(Cc2cccn2-c2nccs2)CC1CCO (centres undefined)	5%	3%	2%	22%[14.2 µM]	3%	0%	.	.

# Compounds as they come (roughly 4.7% active in at least one column).
